Bfl-1 A1 inh – inhibitors of the anti-apoptotic protein A1, read as caspase activation. MEF A1-2A-BIM cells, Caspase-Glo 3/7 luminescence, 3 h; percent of clofoctol response, vehicle zero. caspase activation, % (test concentration not listed). hit rate 0.066% among 330,000. AID 2462;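 active means over half of replicate activation scores above 10%, or exactly half above 10 with the replicate mean above 10; inconclusive means replicate mean below 10 yet half the replicates above 10; inactive means over half of replicates below 10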;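 further: wells of about 30 µL received 50 nL stock; many hits fall short of the cut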
rRNA inh HTS – selective bacterial rRNA inhibition in E. coli; E. coli WT GFP vs humanized-ribosome RFP mutants, fluorescence, 24 h; stronger effect = lower value; DMSO median 0, no signal -100; hit rate 1.6% among 350,000; GFP signal change (wild-type ribosome), % (test concentration not listed);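 active means significant combined selectivity score with lowered wild-type GFP, culture density cut under 30%, mutant RFP and density less affected; inactive means any of these conditions unmet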; further: one replicate is shown; some compounds called inactive have numbers as strong as hits
ALR H2O2 inh – human ALR oxidase inhibition via reduced H2O2; P55789; purified ALR, DTT oxidation, H2O2 HRP-luminol luminescence; inhibition, % (test concentration not listed); hit rate 3.8% among 290,000; AID 485317;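 active means mean and each replicate at 75% or more; inconclusive means only one of the two met; inactive means neither met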;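 further: stock transfer was 7.5 nL into about 7.5 µL; 0% = neutral wells and 100% = wells with inactivated enzyme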
Target sequence (P55789 whole entry, looked up): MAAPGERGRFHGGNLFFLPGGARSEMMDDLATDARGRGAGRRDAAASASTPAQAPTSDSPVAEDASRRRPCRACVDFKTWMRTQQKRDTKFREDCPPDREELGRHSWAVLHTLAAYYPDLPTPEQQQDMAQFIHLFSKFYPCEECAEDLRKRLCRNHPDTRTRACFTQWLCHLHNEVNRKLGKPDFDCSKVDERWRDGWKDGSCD
Calb FLC – C. albicans growth modulation with fluconazole | C. albicans CaCi-2 (fluconazole-resistant clinical isolate) + fluconazole, Alamar Blue growth, 48 h | growth inhibition, % (no concentration beside the values) | hit rate 0.57% among 300,000 | AID 1979;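 active means most replicates above 75%; inconclusive means exactly half above 75%; inactive means most below 75%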;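 further: all wells also contain fluconazole at 8 µg/ml as a sub-toxic cotreatment; 0% = median of DMSO wells and 100% = median of geldanamycin control wells; wells of about 8 µL received 7.5 nL stock; the first replicate is given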
Beta2AR agonist – agonists of human beta-2 adrenergic receptor inducing internalization | response, % (concentration not given with the values) | Am2.2-beta2AR cells, FAP receptor internalization, flow cytometry; reference of the scale not given here | hit rate 0.43% among 340,000;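 active means response above a set limit, near 3 SD of response in nonfluorescent compounds, cut at about 42% in these data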;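 further: stock transfer was 100 nL into about 11 µL; a reference agonist was the positive control; negative values mostly stem from fluorescent compounds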
Target sequence (P07550 whole entry, looked up): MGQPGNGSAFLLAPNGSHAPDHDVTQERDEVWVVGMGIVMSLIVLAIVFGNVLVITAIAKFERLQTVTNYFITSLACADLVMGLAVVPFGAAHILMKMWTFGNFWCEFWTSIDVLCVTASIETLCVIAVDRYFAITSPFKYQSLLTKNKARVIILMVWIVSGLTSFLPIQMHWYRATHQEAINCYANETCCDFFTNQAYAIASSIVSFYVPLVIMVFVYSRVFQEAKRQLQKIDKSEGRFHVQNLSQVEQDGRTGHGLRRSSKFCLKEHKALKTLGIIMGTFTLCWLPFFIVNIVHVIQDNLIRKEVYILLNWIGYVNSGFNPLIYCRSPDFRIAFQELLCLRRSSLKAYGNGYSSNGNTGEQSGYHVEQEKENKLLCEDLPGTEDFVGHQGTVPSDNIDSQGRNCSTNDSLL
T cruzi repl – blocks replication of Trypanosoma cruzi; T. cruzi beta-gal in NIH3T3, luminescence, 90 h; inhibition, % (no concentration beside the values); hit rate 1.4% among 300,000;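 active means mean inhibition across valid replicates above about 55%, limit read from the data; inconclusive means mean below that limit but half or more replicates reach it; inactive means mean below it, under half of replicates reach it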;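 further: signal also drops with host cell toxicity which is not excluded here; 0% = plate median of DMSO wells and 100% = zero luminescence signal; higher percent means less beta-gal luminescence so fewer parasites; stock transfer was 50 nL into about 50 µL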
LANA-H2A inh – blocks KSHV LANA binding to histone H2A/H2B | Q9QR71 | cell-free LANA-H2A/H2B peptide, fluorescence polarization | inhibition, % (concentration not given with the values) | hit rate 0.6% among 320,000 | AID 2629; in the data active means inhibition mostly above about 10%, no sharp cut-off; inactive means mostly below about 6.7%;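 further: stock transfer was 7.5 nL into about 10 µL; 0% = median of vehicle wells and 100% = median of positive control wells; one replicate is shown; the record names a cut of 25% in any replicate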
Beta apoptosis – beta cell apoptosis inhibition; INS-1E cytokine-induced death, ATP luminescence, 48 h; percent of positive-control rescue, neutral wells zero; protection from apoptosis, % (no concentration beside the values); hit rate 0.8% among 300,000;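 active means all replicates at 75% or more, or half of them and the mean; inconclusive means half reach 75% but not the mean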;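 further: 0% = cytokine-treated negative control wells and 100% = positive control rescue; higher means more ATP so stronger rescue from cytokine killing; wells of about 40 µL received 100 nL stock; the first replicate is given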
rRNA inh HTS OD600 – also measured in rRNA inh HTS; calls as there; OD600 change, %; measured here: OD600 growth;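 optical density of the mix in the first replicate; 0 = DMSO median and -100 = no signal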
rRNA inh HTS RFP – recorded beside rRNA inh HTS, whose call it bears; RFP signal change, %; measured here: RFP humanized mutant strains;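 first replicate; 0 = DMSO median and -100 = no signal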
* = called active by the depositor; u = inconclusive; x = not tested or not shown. Not all compounds are listed; count on the stated rates, not on these rows.

| mol | rRNA inh HTS OD600 | ALR H2O2 inh | rRNA inh HTS RFP | LANA-H2A inh | rRNA inh HTS | Beta apoptosis | Bfl-1 A1 inh | Beta2AR agonist | Calb FLC | T cruzi repl |
| --- | --- | --- | --- | --- | --- | --- | --- | --- | --- | --- |
| COc1ccc(CNS(=O)(=O)c2cc(-c3cc(C)no3)ccc2C(C)C)cc1 | -44 | -5 | -6.5 | 0.0 | -34 | 9 | 0.1 | -17 | 19 | -6 |
| Cc1cccc(N2CCN(C(=O)C3CCN(c4ncnc5c4nc4n5CCCCC4)CC3)CC2)c1C | -19 | -4 | 9.2 | 0.8 | 3 | 34 | -0.5 | 23 | -8 | 5 |
| CCC(C)NS(=O)(=O)c1ccc(OCC(=O)NCc2ccccn2)cc1 (stereo unspecified) | 12 | 0 | 4.6 | -0.5 | 21 | x | 0.0 | 2 | -4 | 2 |
| COc1ccc(NC(=O)C2CCCN(c3nc(C)cc(C)n3)C2)cc1 (stereo unspecified) | 5 | 3 | -1.2 | -3.5 | -4 | -1 | -0.2 | 2 | u | 7 |
| CCCCCCn1c(N2CCN(c3ccccc3)CC2)nc2c1c(=O)[nH]c(=O)n2C | x | 8 | x | 3.6 | x | 5 | 0.0 | -13 | -1 | 45 |
| CN(C1CCS(=O)(=O)C1)S(=O)(=O)c1ccccc1[N+](=O)[O-] (stereo unspecified) | 13 | -11 | 0.0 | -1.7 | 18 | 0 | -1.1 | 7 | -19 | 4 |
| CC(C)(C)NC(=O)c1ccc2c(c1)N(CC(=O)N1CCCC1)C(=O)C(C)(C)O2 | 6 | x | 1.7 | 6.0 | 14 | -2 | 2.1 | 1 | -7 | 23 |
| Cc1ccc(-n2nc(C)c(/C=N/n3c(C)n[nH]c3=S)c2Cl)cc1 | 9 | -3 | 1.2 | -19 | 19 | 3 | 1.2 | -6 | 12 | -18 |
| CC1(C)Cc2c(sc(/N=C/N3CCCC3)c2C#N)C(C)(C)N1 | x | -2 | x | 0.1 | x | -1 | -0.9 | -7 | -10 | -14 |
| O=C(NCc1ccco1)c1ccc(COc2ccccc2[N+](=O)[O-])o1 | -13 | -1 | 0.6 | 5.3 | -12 | -1 | -0.1 | -4 | 8 | -19 |
| O=C1C(C23CC4CC(CC(C4)C2)C3)C(=O)N(c2ccccc2)N1c1ccccc1 | 3 | -10 | -2.4 | 7.3 | 7 | -3 | 0.2 | -7 | 3 | 3 |
| COc1cc2c(cc1OC)CN(C(=O)CCN1C(=O)C3CCCCC3C1=O)CC2 (stereo unspecified) | 12 | 0 | -0.5 | -0.7 | 7 | -2 | 0.2 | 6 | -5 | -7 |
| COc1ccc(C[C@H]2CN3C(=NC[C@@H]3Cc3ccccc3)N2CCNC(=O)c2ccc(C)c(Br)c2)cc1 | x | -29 | x | 2.7 | x | 50 | -1.4 | 20 | -10 | 48 |
| CCCN(CC(=O)Nc1ccccc1C)C(=O)c1cc(=O)[nH]c2ccccc12 | -17 | 28 | 2.2 | 4.3 | -2 | -4 | 0.2 | 4 | 24 | -6 |
| Cc1ccc(NC(=O)/C(CN(C)C)=N\O)cc1 | x | 1 | x | -0.7 | x | -5 | 0.1 | -3 | 1 | -10 |
| Cc1cccc(NC2(C(F)(F)F)N=C3SCCN3C2=O)n1 (stereo unspecified) | x | -3 | x | -1.0 | x | 4 | -0.4 | -1 | -7 | -18 |
| CC(=O)Nc1ccc(-c2csc(NC(=O)Nc3ccccc3)n2)cc1 | -52 | x | 5.3 | x | -25 | x | x | 32 | 4 | 7 |
| CN1/C(=C\C(=O)c2ccccc2Cl)c2ccccc2CC1(C)C | x | x | x | 5.0 | x | 7 | -0.2 | 0 | 21 | 29 |
| COc1ccc(NC(=O)CSc2nnc(-c3ccccc3C)n2C)cc1 | x | -20 | x | 3.2 | x | 1 | u | 0 | -8 | -8 |
| COc1cc(-c2cc(C(=O)NCc3ccc(S(N)(=O)=O)cc3)c3ccccc3n2)cc(OC)c1OC | -2 | 0 | 3.3 | -2.3 | -2 | 6 | 0.1 | 33 | -2 | -6 |

The closing 2 compounds of the part above are carried over, then new ones follow.
| mol | rRNA inh HTS OD600 | ALR H2O2 inh | rRNA inh HTS RFP | LANA-H2A inh | rRNA inh HTS | Beta apoptosis | Bfl-1 A1 inh | Beta2AR agonist | Calb FLC | T cruzi repl |
| --- | --- | --- | --- | --- | --- | --- | --- | --- | --- | --- |
| COc1ccc(NC(=O)CSc2nnc(-c3ccccc3C)n2C)cc1 | x | -20 | x | 3.2 | x | 1 | u | 0 | -8 | -8 |
| COc1cc(-c2cc(C(=O)NCc3ccc(S(N)(=O)=O)cc3)c3ccccc3n2)cc(OC)c1OC | -2 | 0 | 3.3 | -2.3 | -2 | 6 | 0.1 | 33 | -2 | -6 |
| Cc1oc(C2CC2)cc1C(=O)O | x | 1 | x | -0.5 | x | -9 | 0.4 | -3 | 10 | 3 |
| Cc1ccc(C2N(c3ccccc3)C(=S)N3CCCN23)cc1 (stereo unspecified) | x | -1 | x | 0.9 | x | -2 | -0.7 | 2 | 1 | -5 |
| Cc1ccc(C)c(C(=O)NC(C)c2ccc(-n3ccnc3)cc2)c1 (stereo unspecified) | 0 | -7 | -0.4 | 1.9 | 6 | -6 | -0.2 | 1 | 1 | 4 |
| Cc1ccc(C)c(S(=O)(=O)/N=C(/Nc2ccccc2)c2ccccc2)c1 | -53 | 0 | -3.7 | 1.2 | -4 | 0 | 1.1 | -7 | x | x |
| COC(=O)c1ccc(/C=C/c2nc3ccccc3c(=O)[nH]2)cc1 | 17 | 0 | -0.4 | -2.6 | 4 | 0 | -10 | 2 | 3 | -11 |

Single records, as listed above:
Cc1ccc(C)c(C(=O)NC(C)c2ccc(-n3ccnc3)cc2)c1 (stereo unspecified) reads rRNA inh HTS OD600 = 0; ALR H2O2 inh = -7; rRNA inh HTS RFP = -0.4; LANA-H2A inh = 1.9; rRNA inh HTS = 6; Beta apoptosis = -6; Bfl-1 A1 inh = -0.2; Beta2AR agonist = 1; Calb FLC = 1; T cruzi repl = 4
Cc1ccc(C2N(c3ccccc3)C(=S)N3CCCN23)cc1 (stereo unspecified) reads rRNA inh HTS OD600 = x; ALR H2O2 inh = -1; rRNA inh HTS RFP = x; LANA-H2A inh = 0.9; rRNA inh HTS = x; Beta apoptosis = -2; Bfl-1 A1 inh = -0.7; Beta2AR agonist = 2; Calb FLC = 1; T cruzi repl = -5
Cc1oc(C2CC2)cc1C(=O)O reads rRNA inh HTS OD600 = x; ALR H2O2 inh = 1; rRNA inh HTS RFP = x; LANA-H2A inh = -0.5; rRNA inh HTS = x; Beta apoptosis = -9; Bfl-1 A1 inh = 0.4; Beta2AR agonist = -3; Calb FLC = 10; T cruzi repl = 3

Screens deposited in PubChem by several laboratories.
